Bioassay records (PubChem)
VDR inh – Inhibitors of the vitamin D receptor (VDR): qHTS. AID 504847, 2011. Vitamin D3 receptor (Homo sapiens), P11473. Potency, µM, without a hit: max response, negative = inhibition, actives largely listed as inhibitors. actives 0.93% (n = 400,000). VDR-SRC2-3 peptide fluorescence polarization, 2 h; active = well fitted inhibition curve with a large enough effect; inconclusive = small, poorly fitted or top-dose-only effect, or another doubt; inactive = no such curve, though single readings can be large or run the other way; also: series mostly up to about 120 µM
Target sequence (P11473 whole entry, looked up): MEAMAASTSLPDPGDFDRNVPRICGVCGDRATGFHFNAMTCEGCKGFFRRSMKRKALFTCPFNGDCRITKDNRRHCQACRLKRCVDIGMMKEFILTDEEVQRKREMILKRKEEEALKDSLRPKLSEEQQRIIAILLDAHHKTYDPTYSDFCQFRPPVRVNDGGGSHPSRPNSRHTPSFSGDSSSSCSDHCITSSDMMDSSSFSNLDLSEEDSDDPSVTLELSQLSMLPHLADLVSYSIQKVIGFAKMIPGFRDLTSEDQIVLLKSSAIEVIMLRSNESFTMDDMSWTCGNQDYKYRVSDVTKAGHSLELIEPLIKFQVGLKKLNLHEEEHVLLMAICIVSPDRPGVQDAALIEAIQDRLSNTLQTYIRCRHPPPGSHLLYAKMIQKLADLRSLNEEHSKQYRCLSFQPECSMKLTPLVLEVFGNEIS
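Fluorescence polarization assay of small-molecule disruption of VDR binding to coregulator peptide SRC2-3. Compounds and controls pin-transferred, then read after 2 h incubation at ambient room temperature.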
The depositor's hits bear a star; ? = inconclusive; [ ] = remark or other dose. % is scaled to controls: 0 for no effect and ±100 for the full control effect; potency is read from the fitted curve at half-maximal effect. These rows are one share of the data, so the mix of outcomes need not match the whole.

VDR inh	compound
-14%	COc1ccc(N2C(=O)C3C(c4ccc(OC)cc4O)NC(Cc4ccccc4)(C(=O)O)C3C2=O)cc1 (centres undefined)
-16%	CC(C)NC(=O)NC(=O)CSc1nnc(-c2ccccc2F)n1N
-3%	CC(Oc1ccccc1)C(=O)NC1CC(C)(C)NC(C)(C)C1 (centres undefined)
15%	Cc1ccc(S(=O)(=O)N2C(=O)CCC2C(=O)Nn2cnnc2)cc1 (centres undefined)
8%	COc1ccc(S(=O)(=O)Nc2ccc(C)c(S(=O)(=O)N3CCOCC3)c2)cc1[N+](=O)[O-]
-6%	Cc1cccc(N(C)c2nc3ccc(C)cc3n3nnnc23)c1
11%	CCC(O)c1nc2ccccc2n1CCc1ccccc1 (centres undefined)
-2%	CCNS(=O)(=O)c1ccc(CCC(=O)NCc2ccncc2)cc1
-9%	O=C(c1ccc(-c2ccc([N+](=O)[O-])cc2)o1)N1CCCC(C(F)(F)F)C1 (centres undefined)
0%	CN(CCO)c1cc(NCCCN2CCC(Cc3ccccc3)CC2)c2nonc2c1[N+](=O)[O-]

Following part
VDR inh	compound
-14%	COc1ccc(NC(=O)C2CCC(CNC(=O)[C@@H]3Cc4ccccc4CN3)CC2)cc1 (some centres undefined)
-9%	COc1ccc(CN2CCc3c([nH]c4ccccc34)C2)c(OC)c1C
2%	CCOC(=O)c1c(NC(=O)/C=C/c2ccc(C)cc2)sc(C(C)=O)c1C
17%	CCOC(=O)c1cc(OC(=O)c2ccc(OC)c(OC)c2)n(-c2ccccc2)n1
-4%	Cc1cccc(Oc2nc(-c3ccccc3)cc(C)c2S(C)(=O)=O)c1C
-10%	COc1cccc(NS(=O)(=O)c2ccc3c(c2)n(C)c(=O)c(=O)n3C)c1
23%	CCOc1ccc(C2C(C(N)=O)=C(C)Nc3ncnn32)cc1OC (centres undefined)
9%	COc1cc2ncc(S(=O)(=O)c3ccccc3)c(N3CCC4(CC3)OCCO4)c2cc1OC
-3%	O=C(Cn1nnc(-c2ccc(N3CCOCC3)cc2)n1)N1CCOCC1
5%	Cn1ncc(Br)c1C(=O)N1CCCCCC1

Following part.
VDR inh	compound
-14%	COc1cc(C)c(NC(=S)Nc2cccc(Cl)c2C)cc1OC
7%	CCOC(=O)Cc1ncccc1C(=O)Nc1ccc(OC(F)(F)F)cc1
2%	Cc1cc(/C=C(\C#N)C(=O)OCC(=O)NC(=O)NC(C)(C)C)c(C)n1CCC(C)C
?	FC(F)(F)c1nc(=S)c2ccccc2[nH]1
-4%	NNC(=O)COc1cccc(C(F)(F)F)c1
-6%	N/C(=N\OC(=O)COc1ccc2ccccc2c1Br)c1ccccn1
2%	CCOc1ccc(NC(=O)c2c(NCc3cccs3)sc3c2CCCCC3)cc1
-21%	C=CCn1c(SCC(=O)NCC)nnc1-c1cc2c(s1)CCC(CC)C2 (centres undefined)
-6%	COC(=O)C1=C(N)N(c2ccc(F)cc2)C2=C(C(=O)CCC2)C1c1ccc2c(c1)OCO2 (centres undefined)
3%	CN(C)C(=O)c1ccc(NC(=O)COC(=O)C2(c3ccccc3)CCCC2)cc1

The listing continues:
VDR inh	compound
14%	Cc1ccccc1CN1CCC(CNc2ncnc3onc(-c4ccc(Cl)cc4)c23)CC1
-23%	O=C(CC1S/C(=N/N=C/c2cccs2)NC1=O)Nc1ccc(Cl)cc1 (centres undefined)
1%	Cc1cccc(NC(=O)N2CCc3c(sc4c3CCCC4)C2c2ccc(F)cc2)c1 (centres undefined)
-10%	Cc1cccc(Nc2nc(-c3ccccn3)cs2)n1
-6%	OCCC1CN(Cc2cc3c(cc2Cl)OCO3)CCN1C1CCCCC1 (centres undefined)
10%	O=C(NC1CCCCCC1)C1CCN(C(=O)N2CCOc3ccccc32)CC1
-6%	O=C(Nc1cccnc1)c1cc(S(=O)(=O)N2CCOCC2)ccc1Br
-1%	CN(C)S(=O)(=O)c1cc(NC(=O)CNCCN2CCOCC2)ccc1Cl
11%	Cn1cc(C(=O)NCCN2CCN(c3cccc(Cl)c3)CC2)c2c3ccccc3n(C)c2c1=O
-12%	N#Cc1c(-c2ccc(Cl)cc2)n(O)c2ccccc12

The list continues:
VDR inh	compound
-16%	CC(C)c1ccc2c(c1)C1(NN=C(c3ccccc3)S1)C(=O)N2 (centres undefined)
-5%	Nc1ccc(N2CCN(c3ncc(C(F)(F)F)cc3Cl)CC2)c(C(F)(F)F)c1
2%	CCC1CN(C(=O)Nc2cccc3c2CCCC3)c2cc(Cl)ccc2O1 (centres undefined)
5%	CCOC(=O)c1c(NC(=O)CSc2nnc(Cc3ccccc3)o2)sc(C(C)=O)c1C
-3%	COC(=O)N1[C@H](C)C=C[C@]1(Cc1ccccc1)C(=O)OC
4%	Cc1ccc(NC(=S)N(CCCN2CCCC2)Cc2cccn2Cc2ccc(Cl)cc2)cc1C
9%	CC(O)c1cccc(NC(=O)C2CCCCC2)c1 (centres undefined)
-15%	Cc1cc(=O)oc2c(C)c(OCC(=O)N3CCN(c4ccccc4)CC3)ccc12
10%	Nc1ccc(CN2CCCCCC2)cc1
1%	COC(=O)c1ccc(NC(=O)CN2C(=O)CSC2=O)cc1

Copied from the list:
For VDR inh, COC(=O)c1ccc(NC(=O)CN2C(=O)CSC2=O)cc1 has the entry 1%
For VDR inh, CC(C)c1ccc2c(c1)C1(NN=C(c3ccccc3)S1)C(=O)N2 (centres undefined) has the entry -16%

More structures follow.
VDR inh	compound
-15%	O=C(O)C1(P(=O)(c2ccc(Cl)cc2)c2ccc(Cl)cc2)CCCC1
-5%	Cc1[nH]nc(SCC(=O)N2CCC(C)CC2)c1[N+](=O)[O-]
-15%	C=CCSc1nc2c(c(=O)[nH]c(=O)n2C)n1Cc1ccc(C)cc1
6%	O=S(=O)(c1ccc(Cl)cc1)N1CCCCCC1
-1%	Fc1cccc(Cl)c1Cn1nnc2c(NCc3ccncc3)ncnc21
36%[activator]	CCOC(=O)C1CCN(C(=O)CSc2ccc(Br)cc2)CC1
22%	CCCn1c(N)c(C(=O)CSc2nc(N)cc(=O)[nH]2)c(=O)n(C)c1=O
15%	COC(=O)c1ccc(SC2CCCCC2)c([N+](=O)[O-])c1
-4%	COc1ccc(NC(=O)CCN2C(=O)c3ccncc3C2=O)cc1OC
-7%	COc1ccc(/C=C(/CC(=O)Nc2ccc(C)cc2)c2nc3ccccc3s2)cc1

Remaining list, next part.
VDR inh	compound
12%	COc1ccc(-c2nnc(N(C)C(=O)c3ccco3)s2)cc1OC
-16%	Cc1ccc(C)c(N2CCN(C(=O)C3CCCCN3S(=O)(=O)c3ccc(F)cc3)CC2)c1 (centres undefined)
0%	Cc1cccc(N2CCN(C(=O)c3oc4ccc(Br)cc4c3C)CC2)c1C
-5%	O=C(CC1(O)C(=O)Nc2ccccc21)c1ccc(-n2cccc2)cc1 (centres undefined)
-1%	O=c1c2ccccc2cnn1Cc1cccc(Br)c1
?	C=CCn1c(N)c(C(=O)OCC(C)C)c2nc3ccccc3nc21
-13%	Cc1c(Cl)cccc1N(CC(=O)NC(C)c1ccccc1)S(C)(=O)=O (centres undefined)
16%	CC(C)(C)CC(=O)Nc1nnc(SCC(=O)NC2CCCCC2)s1
4%	COc1ccc(CCNC(=S)N2CCC(C(=O)c3ccc(F)cc3)CC2)cc1OC
14%	Cc1cccc(NC(=O)CSc2nc(-c3cccs3)nc3cc(=O)[nH]n23)c1

Retrieved one by one from above:
VDR inh	compound
1%	Cc1cccc(NC(=O)N2CCc3c(sc4c3CCCC4)C2c2ccc(F)cc2)c1 (centres undefined)
6%	O=S(=O)(c1ccc(Cl)cc1)N1CCCCCC1
9%	CC(O)c1cccc(NC(=O)C2CCCCC2)c1 (centres undefined)
-1%	CN(C)S(=O)(=O)c1cc(NC(=O)CNCCN2CCOCC2)ccc1Cl
-15%	C=CCSc1nc2c(c(=O)[nH]c(=O)n2C)n1Cc1ccc(C)cc1
3%	CN(C)C(=O)c1ccc(NC(=O)COC(=O)C2(c3ccccc3)CCCC2)cc1
5%	CCOC(=O)c1c(NC(=O)CSc2nnc(Cc3ccccc3)o2)sc(C(C)=O)c1C

(next part)
VDR inh	compound
10%	COc1ccc(S(=O)(=O)N2CCN(C3CCN(Cc4ccccc4)CC3)CC2)cc1
3%	O=C(/C=C/c1ccc2c(c1)OCO2)NCc1ccncc1
-4%	OCC[C@@H]1C[C@@H](O)[C@H](O)[C@]2(CCc3ccccc3O2)O1
3%	COc1ccc(S(=O)(=O)N2CCCCCC2)cc1C(=O)OCc1c(C)noc1C
10%	COc1ccc(-c2ccc3oc(-c4ccsc4)cc(=O)c3c2)cc1F
-18%	O=C(CNS(=O)(=O)c1ccccc1)N/N=C\c1ccc(Cl)cc1
-8%	COc1ccccc1NC(=O)C1CCCN(S(=O)(=O)c2ccc3[nH]c(=O)ccc3c2)C1 (centres undefined)
5%	Cc1cc(Nc2ccc(Cl)cc2)nc(NCc2ccccc2)n1
12%	COC(=O)c1cc(NC(=O)CN(c2ccc3c(c2)OCO3)S(C)(=O)=O)ccc1Cl
12%	Cc1nc2ccc(C(=O)N/N=C/c3cc([N+](=O)[O-])ccc3O)cc2[nH]1

Following part:
VDR inh	compound
-11%	Cc1ccc(N2C(=O)C3C(c4ccccc4)N4CCCN4C3(C)C2=O)cc1 (centres undefined)
-10%	CC1CCN(C(=O)c2ccc(COc3ccccc3Cl)o2)CC1
-17%	O=C(O)c1ccccc1C(=O)NNc1ccc(Cl)cc1
-17%	CC(=O)c1ccccc1OC(=O)c1c(F)cccc1F
6%	COc1cc(C=O)ccc1OC(=O)c1ccncc1
3%	O=C1C=C(N2CCCCCC2)C(=O)N1c1ccc(Cl)cc1
0%	COC(=O)c1c(C)sc(-c2c(-c3cccc(OC)c3)[nH]c3c2c(=O)[nH]c(=O)n3C)c1O
-3%	O=S(=O)(c1c(F)cccc1F)C1CCN(S(=O)(=O)c2ccc3c(c2)OCCO3)CC1
-16%	CCCCC(=O)NNC(=S)NC(=O)CCC
9%	NS(=O)(=O)c1ccc(CCNC(=O)CSc2ccc(Cl)cc2Cl)cc1

A draw from above in order of count of non-hydrogen atoms, ascending:
VDR inh	compound
6%	COc1cc(C=O)ccc1OC(=O)c1ccncc1
3%	O=C1C=C(N2CCCCCC2)C(=O)N1c1ccc(Cl)cc1
-10%	CC1CCN(C(=O)c2ccc(COc3ccccc3Cl)o2)CC1
-11%	Cc1ccc(N2C(=O)C3C(c4ccccc4)N4CCCN4C3(C)C2=O)cc1 (centres undefined)
-3%	O=S(=O)(c1c(F)cccc1F)C1CCN(S(=O)(=O)c2ccc3c(c2)OCCO3)CC1

Continuation.
VDR inh	compound
29%	Cc1coc2c1c(C)cc1oc(=O)c(CC(=O)NCC(=O)N[C@H](C(=O)O)C(C)C)c(C)c12
6%	CCOC(=O)c1ccc(NC(=O)NC(C)C2CCCO2)cc1 (centres undefined)
-29%	Cn1c(=O)n(C)c2cc([N+](=O)[O-])c(N3CCN(C(=O)c4ccc(Cl)cc4)CC3)cc21
20%	CC(C)CCNC(=O)C(=O)Nc1ccccc1
-3%	O=S(=O)(c1ccccc1)N1CCN(S(=O)(=O)N2CCCCC2)CC1
16%	O=S(=O)(Nc1c(F)cccc1F)c1ccc(Cl)nc1
-11%	Cc1nn(C)c(Cl)c1CN1CCCC(CCC(=O)NCc2ccccc2F)C1 (centres undefined)
-8%	C#CC(C)(CC)NC(=O)Cn1nnc(-c2ccc(OCc3ccccc3F)cc2)n1 (centres undefined)
-10%	O=C(NN1C(=O)c2ccccc2NC1c1ccc([N+](=O)[O-])o1)c1ccc(Br)cc1 (centres undefined)
-19%	COc1cc(S(=O)(=O)N2CCOCC2)ccc1NC(=O)COC(=O)c1cc(OC)c(OC)c(OC)c1

Next section.
VDR inh	compound
-23%	CCCC1OC23CCCCC2C(C#N)(C#N)C1(C#N)C(=N)O3 (centres undefined)
-16%	Cn1cc(/C=C(\NC(=O)c2ccccc2)C(=O)N2CCOCC2)c2ccccc21
-12%	O=C(COC(=O)c1ccc(-c2nnc(-c3ccccc3)o2)cc1)c1ccccc1
-13%	CCc1sc(C(=O)Nc2nc(C)cs2)cc1C
34%[activator]	Cc1ccc2[nH]c(=O)c(C(c3nnnn3Cc3ccccc3)N3CCc4ccccc43)cc2c1 (centres undefined)
7%	COc1ccc(NC(=O)C2CCCN2S(=O)(=O)c2ccc3c(c2)CC(C)N3C(C)=O)cc1OC (centres undefined)
-10%	CN(C)S(=O)(=O)c1cccc(NC(=O)c2cc(=O)[nH]c3ccccc23)c1
-13%	COc1cccc2sc(/N=C/N(C)C)nc12
1%	CCC(C)NC(=O)C1CCN(S(=O)(=O)c2ccc3[nH]c(=O)ccc3c2)CC1 (centres undefined)
-8%	CCc1sc(C(=O)NC)cc1Br

(next part)
VDR inh	compound
4%	OCc1ccccc1OCCOc1ccc(Cl)c2cccnc12
3%	Cc1ccc(S(=O)(=O)NNC(=O)c2sc(NS(=O)(=O)c3ccccc3)nc2C)cc1
0%	COC(=O)[C@]1(Cc2ccccc2)N[C@H](CN(C)C(=O)Nc2ccc(Cl)cc2)[C@@H]2C(=O)N(Cc3ccccc3)C(=O)[C@@H]21
7%	CC(C)(C)C(=O)Nc1ccccc1C(=O)NCCCn1ccnc1
15%	NC(CCC(=O)NCS(=O)(=O)O)C(=O)O (centres undefined)
-20%	O=c1cc(-c2ccccc2Cl)oc2c([N+](=O)[O-])ccc(O)c12
0%	CS(=O)(=O)N1CCN(C(=O)Cc2ccc([N+](=O)[O-])cc2)CC1
14%	CCCCC(=O)Nc1c(C(=O)N2CCN(c3ccccc3)CC2)oc2ccccc12

Some of these compounds in order of their number in VDR inh, smallest number first.
| Structure | VDR inh |
| --- | --- |
| CS(=O)(=O)N1CCN(C(=O)Cc2ccc([N+](=O)[O-])cc2)CC1 | 0% |
| CC(C)(C)C(=O)Nc1ccccc1C(=O)NCCCn1ccnc1 | 7% |
| CCCCC(=O)Nc1c(C(=O)N2CCN(c3ccccc3)CC2)oc2ccccc12 | 14% |
